# KAT2A inh – inhibitors of human GCN5L2 histone acetyltransferase. Q92830. GCN5L2 HAT assay, ThioGlo1 CoA-SH fluorescence. Potency, µM (doses to about 58.9 µM), for the others: at the highest dose activity change, negative = inhibition, hits mostly inhibitors. 390,000 compounds, 0.21% hits; active means well fitted inhibition curve with a large enough effect; inconclusive means small, poorly fitted or top-dose-only effect, or another doubt; inactive means no such curve, though single readings can be large or run the other way
# Target sequence (Q92830 whole entry, looked up): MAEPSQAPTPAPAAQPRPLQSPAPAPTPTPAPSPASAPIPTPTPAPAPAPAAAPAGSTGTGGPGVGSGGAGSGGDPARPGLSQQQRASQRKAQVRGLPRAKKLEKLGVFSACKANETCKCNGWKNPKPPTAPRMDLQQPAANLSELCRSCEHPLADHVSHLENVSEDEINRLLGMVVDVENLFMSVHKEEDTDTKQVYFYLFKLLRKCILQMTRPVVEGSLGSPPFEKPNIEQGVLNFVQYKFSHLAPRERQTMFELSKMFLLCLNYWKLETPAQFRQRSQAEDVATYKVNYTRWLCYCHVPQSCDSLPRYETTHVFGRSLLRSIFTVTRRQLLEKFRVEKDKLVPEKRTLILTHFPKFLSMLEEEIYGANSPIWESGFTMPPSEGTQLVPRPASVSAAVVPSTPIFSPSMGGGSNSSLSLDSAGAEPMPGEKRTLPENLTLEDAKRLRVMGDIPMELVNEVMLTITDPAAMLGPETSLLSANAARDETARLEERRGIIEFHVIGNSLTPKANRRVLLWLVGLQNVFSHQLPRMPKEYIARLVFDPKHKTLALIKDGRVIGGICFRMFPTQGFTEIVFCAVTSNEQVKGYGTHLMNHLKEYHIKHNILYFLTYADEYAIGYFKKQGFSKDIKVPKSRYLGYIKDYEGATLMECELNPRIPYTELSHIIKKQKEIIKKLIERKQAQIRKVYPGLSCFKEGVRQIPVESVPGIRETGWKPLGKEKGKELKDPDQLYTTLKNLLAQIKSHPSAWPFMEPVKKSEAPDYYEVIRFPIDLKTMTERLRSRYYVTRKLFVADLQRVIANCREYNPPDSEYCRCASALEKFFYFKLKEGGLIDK
#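 GCN5L2 (20nM final) in 50mM HEPES, 0.1mM EDTA pH 7.5, 0.01% Tween-20 was preincubated 15 min at room temperature with compound, then given ThioGlo1 (50uM), H3(1-25) peptide (75uM) and acetyl-CoA (70uM); CoA-thiol fluorescence (Ex340/Em540) was read at 0 and 20 min.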
# * hit, by the source's call; ? = inconclusive; & = joins results of further samples; [ ] = dose if it differs, or a comment. On the % scale 0 is the no-effect control and ±100 the full control effect; potency means the concentration at half of the fitted maximal effect. This is a subset, and most or all hits are left out here.
# The opening 16 compounds as a preview:
SMILES,KAT2A inh
CCOC(=O)c1cc(-c2ccccc2)nn1Cc1ccccc1,-1%
Nc1ncnc2nc(SCc3ccc(Cl)cc3Cl)[nH]c12,1%
Cc1ccc(-n2c(C)cn(C(=O)c3ccccc3)c2=S)cc1,4%
COCCCn1c(C(=O)NCCN2CCOCC2)cc2c(=O)n3cccc(C)c3nc21,-8%
CC1=C(c2ccc(C(C)C)cc2)S(=O)(=O)NC1=NCc1ccccc1C,-7%
COc1cc(NC(=O)NNC(=O)c2cc3occc3n2C)cc(OC)c1OC,0%
O=C(c1ccc(Oc2ccccc2)cc1)C1CCCN(C(=O)c2cnccn2)C1 (stereo unspecified),3%
Cc1ccn2c(c1)nc(=O)c1cc(S(=O)(=O)N3CCC(C)CC3)ccc12,2%
CN(CC(=O)Nc1ccc(F)cc1)C(=O)C1CCN(S(=O)(=O)c2ccc3c(c2)OCCO3)CC1,-2%
CCCN1C(=O)C(O)(CC(=O)c2ccc(CC)cc2)c2ccccc21 (stereo unspecified),-1%
CSc1nc2[nH]ncc2c(=O)[nH]1,-6%
N#Cc1c2c(c(Nc3ccc(O)cc3)n3c1nc1ccccc13)CCC2,-3%
Cc1cccc(C)c1NC(=O)CNC(=O)CCNC(=O)c1ccco1,-1%
CC(=O)Nc1ccc(S(=O)(=O)c2ccc(N)cc2)cc1N,0%
Cc1ccc(Cl)cc1NC(=O)CCS(=O)(=O)c1ccc(Br)s1,-3%
COc1ccc(C2(C(F)(F)F)NC(=O)N(C)C(=O)N2C)cc1 (stereo unspecified),-2%

# Main list, repeating the preview:
SMILES,KAT2A inh
CCOC(=O)c1cc(-c2ccccc2)nn1Cc1ccccc1,-1%
Nc1ncnc2nc(SCc3ccc(Cl)cc3Cl)[nH]c12,1%
Cc1ccc(-n2c(C)cn(C(=O)c3ccccc3)c2=S)cc1,4%
COCCCn1c(C(=O)NCCN2CCOCC2)cc2c(=O)n3cccc(C)c3nc21,-8%
CC1=C(c2ccc(C(C)C)cc2)S(=O)(=O)NC1=NCc1ccccc1C,-7%
COc1cc(NC(=O)NNC(=O)c2cc3occc3n2C)cc(OC)c1OC,0%
O=C(c1ccc(Oc2ccccc2)cc1)C1CCCN(C(=O)c2cnccn2)C1 (stereo unspecified),3%
Cc1ccn2c(c1)nc(=O)c1cc(S(=O)(=O)N3CCC(C)CC3)ccc12,2%
CN(CC(=O)Nc1ccc(F)cc1)C(=O)C1CCN(S(=O)(=O)c2ccc3c(c2)OCCO3)CC1,-2%
CCCN1C(=O)C(O)(CC(=O)c2ccc(CC)cc2)c2ccccc21 (stereo unspecified),-1%
CSc1nc2[nH]ncc2c(=O)[nH]1,-6%
N#Cc1c2c(c(Nc3ccc(O)cc3)n3c1nc1ccccc13)CCC2,-3%
Cc1cccc(C)c1NC(=O)CNC(=O)CCNC(=O)c1ccco1,-1%
CC(=O)Nc1ccc(S(=O)(=O)c2ccc(N)cc2)cc1N,0%
Cc1ccc(Cl)cc1NC(=O)CCS(=O)(=O)c1ccc(Br)s1,-3%
COc1ccc(C2(C(F)(F)F)NC(=O)N(C)C(=O)N2C)cc1 (stereo unspecified),-2%
CN(C)/C=C/c1onc(-c2ccccc2Cl)c1C#N,-14%
Cc1cc(OCC(=O)Nc2cccc(S(=O)(=O)N3CCCC3)c2)ccc1Cl,-14%
Nc1cc(N)nc(SCc2ccccc2)n1,-4%
CCOC(=O)c1sc(NC(=O)CSc2nc3c(c(-c4ccc(OC)cc4)c2C#N)CCCC3)c(C#N)c1C,-7%
CN(C)S(=O)(=O)c1ccc(Oc2ccccc2)cc1,-8%
N#CCCN(Cc1cccnc1)C(=O)Nc1ccccc1,-8%
COc1cccc(CNCCNC(=O)c2nonc2N)c1,-3%&-1%
COc1ccc(OC)c(Nc2ncnc3c2cnn3-c2cccc(Cl)c2)c1,13%
Cc1cc(C)c2sc(N(CCCN(C)C)C(=O)COc3ccc(Cl)cc3)nc2c1,-16%
O=C(Oc1ccc2ccc(=O)oc2c1)c1ccc([N+](=O)[O-])cc1,-3%
O=C(Nc1cccc([N+](=O)[O-])c1)N1CCc2ccccc2C1,-19%
COC(=O)Cc1ccc(NC(=O)c2ccc(NC(=O)c3ccco3)cc2)cc1,-4%
Cc1ccc(-n2ncc3c2CCCC3NC(=O)CCc2cnn(C)c2)cc1C (stereo unspecified),1%
CCOc1ccc(NC(=O)C(c2ccccn2)N(C(=O)CCl)c2ccc(F)cc2)cc1 (stereo unspecified),16%
Cc1cc(Cn2ccnc2)c(C)cc1Cn1ccnc1,0%
Cc1cc2c(cc1C)N(CC(=O)N1CCCC1)C(=O)CC(c1ccccc1)=N2,1%[0.501 µM]
O=C(CN1CCC(O)(c2ccc(F)cc2)CC1)NCc1ccc(F)cc1,-2%
CC1=CN2C(=N)/C(=C/c3cn(CCCOc4ccccc4C)c4ccccc34)C(=O)N=C2S1,2%
N#Cc1cccnc1Nc1ccc(Cl)cc1,2%
CCc1ccc(-c2ccc3nnc(SC)n3n2)cc1,-5%

# Given as tab-separated lines: part of the list above.
Molecule	KAT2A inh
Cc1ccc(Cl)cc1NC(=O)CCS(=O)(=O)c1ccc(Br)s1	-3%
COc1ccc(C2(C(F)(F)F)NC(=O)N(C)C(=O)N2C)cc1 (stereo unspecified)	-2%

# New compounds follow.
SMILES,KAT2A inh
CCn1c(COc2ccc(=O)n(-c3ccccc3)n2)nnc1SCc1ccc(OC)cc1,-2%
Cc1nc(NC(=O)c2ccc(Cl)cc2)nc2cc3c(cc12)OCO3,-5%
CC(C)NS(=O)(=O)c1ccc(OCC(=O)NC2CCCCCC2)cc1,-27%
Cc1[nH]c(=O)[nH]c(=O)c1N(C)C,0%
CC1=C(C(=O)Nc2cccnc2)C(c2cccc(O)c2)n2nc(SCc3ccccc3)nc2N1 (stereo unspecified),-7%
Cc1cccc(CC(=O)c2c[nH]c3ccccc23)c1,-4%
COc1cc(OC)cc(-c2c(C#Cc3ccsc3)c3cc(-c4ccc(C(N)=O)cc4)ccc3n2C)c1,-14%
Cc1nc2ccccc2c(=O)n1-c1ccc(F)c(NC(=O)c2cccs2)c1,0%
C=CCn1c(-c2ccccc2OCC)n[nH]c1=S,2%
O=C(c1ccccc1)c1nn(-c2ccc(Cl)cc2)c(=O)cc1C(F)(F)F,?
CCC(C)N(C(=O)COC(=O)CN=C1NS(=O)(=O)c2ccccc21)C1CCS(=O)(=O)C1 (stereo unspecified),-4%
CCOc1cccc2sc(N3CCN(C(=O)C4CC4)CC3)nc12,-3%
Cc1ccc(NC(=O)C2Cc3ccccc3N2C(=O)c2ccccc2)cc1Cl (stereo unspecified),17%
CCCOc1ccc(-c2c(C(=O)N/N=C/c3ccc(OC)cc3)nnn2-c2nonc2N)cc1,-11%
CCc1ccc(NC(=S)N2CCNC(=O)C2CC(=O)OC)cc1 (stereo unspecified),0%
CCc1cc2cccc(C)c2nc1SCC(=O)N1CCN(C(=O)c2ccco2)CC1,1%
Cc1ccccc1CS(=O)(=O)Cc1ccc(C(=O)NC2CCCCC2)o1,-3%
Cc1nc(NC(=S)NC(=O)c2cccs2)ccc1Br,-3%
Cc1nc2ccccc2c(=O)n1-c1ccc(NS(=O)(=O)c2ccccc2)cc1,0%
O=S(=O)(c1ccccc1)N(Cc1ccccc1)c1ccccn1,-3%
CCS(=O)(=O)C(=C1Nc2ccccc2N1)S(=O)(=O)CC,-1%
CN(C)/N=N/c1nc[nH]c1C(N)=O,-9%&-8%
CCc1ccc(Cc2cnc(NC(=O)C3=NCCN3)s2)cc1,2%
Cc1cc(C(=O)NCC2CCCO2)sc1C (stereo unspecified),0%
COc1ccc(NC(=S)N(CCCN2CCOCC2)Cc2cn(C)c3ccccc23)cc1,2%
O=C(NCc1ccccc1)c1ccc(CS(=O)(=O)c2c(Cl)cccc2Cl)o1,-4%
O=C(NCCCN1CCOCC1)/C(=C/c1cccnc1)NC(=O)c1ccccc1,-2%
CN(Cc1ccccc1)c1nnc(NC(=O)Nc2cccc(Br)c2)s1,-12%
O=C(NCC(=O)N1CCN(S(=O)(=O)c2c(F)cccc2F)CC1)c1ccccc1F,-4%
Cn1nc(C(F)(F)F)c(/C=N/OC(=O)c2ccccc2Cl)c1SCc1ccc(Cl)cc1,-9%
COc1cccc(NC(=O)CCSc2ccc(C)cc2)c1,-1%
O=C1c2ccccc2C(=O)N1OCc1ccccc1,-3%
Cc1sc2ncn(CC(=O)N3CCCCC3)c(=O)c2c1C,0%
CCCOc1ccc(N2C(=O)CC(N3CCN(C(=O)c4ccco4)CC3)C2=O)cc1 (stereo unspecified),9%
O=C(CNC(=S)NC(=O)C1CCCCC1)c1ccccc1,0%
COc1ccc(NS(=O)(=O)c2ccc(O)c(C(=O)OCC(=O)NC3CCCCC3)c2)cc1,-7%
Cc1ccc(NC(=O)c2ccc3[nH]c(C)cc(=O)c3c2)c(C)c1,-3%
O=C(c1cn(-c2ccccc2)nc1-c1ccccc1)N1CCN(c2ccccn2)CC1,21%
CCN(C(=O)CSc1nnc(Nc2ccc(OC)cc2)s1)C1CCS(=O)(=O)C1 (stereo unspecified),-10%
O=C(Cc1ccc(Cl)c(Cl)c1)Nc1ccc2[nH]c(=O)[nH]c2c1,-19%
CCOc1ccc(C(=O)NCC(=O)OCCCC(=O)c2ccc(F)cc2)cc1OCC,4%
Cc1ccc(C(=O)Nc2ccccc2C(=O)Nc2ccccn2)cc1Cl,0%
Cc1cc2[nH]c(=O)c(=O)[nH]c2cc1S(=O)(=O)Nc1cccc(C)c1C,-6%
C/C=C(/C)C(=O)Nc1cccc(C2=NOC3(C2)C[C@H](C(N)=O)N(C(=O)c2ccccc2)C3)c1 (stereo partly specified),-9%
CC(C)OCCCNC(=S)N1CCC(C(=O)c2ccc(Cl)cc2)CC1,-2%
COC(=O)c1ccc2c(c1)N(Cc1ccccc1F)C(=O)c1ccccc1S2=O (stereo unspecified),-3%
COCc1cc([C@@H]2C[C@H]3CN(c4ccccc4)C(=O)[C@]34CCCN24)ccc1OC,0%
Clc1ccc(OCCSCc2nc3ccccc3[nH]2)cc1,-3%
CCc1nn(C(CC)C(=O)NCCCc2ccccc2)c(=O)c2cc3occc3n12 (stereo unspecified),-9%
Nc1nc(SCCO)[nH]c(=O)c1NC(=O)c1ccc(Br)o1,-2%
COc1ccc(C2C3=C(CCCC3=O)Nc3nc(C(F)(F)F)nn32)c(OC)c1OC (stereo unspecified),-10%
CCOC(=O)c1c(NC(=O)C[n+]2ccccc2)sc2c1CCCC2,1%
Cc1ccc(S(=O)(=O)N(C)Cc2ccc(-c3nnco3)cc2)cc1,-1%
Cc1ccc2nc(N/C(N)=N/S(=O)(=O)c3ccc([N+](=O)[O-])cc3)nc(C)c2c1,-10%
COCCCN(C(=O)C(C)Oc1ccc(Br)cc1)c1c(N)n(Cc2ccccc2)c(=O)[nH]c1=O (stereo unspecified),5%
Cc1nn(CC(=O)Nc2ccc(C(=O)N3CCCCC3)cc2)c(=O)c2ccccc12,-16%
Cc1cc(Nc2cccc(Cl)n2)n(-c2ccccc2)n1,-7%
Cc1ccc(/C=N/NC(=O)c2cccc(S(=O)(=O)N3CCOCC3)c2)o1,1%
COCCCNC(=O)Cn1c(=O)n(Cc2ccc(C(=O)NCc3ccc(C)cc3)cc2)c(=O)c2ccccc21,-5%
Cc1cc2c(NC(=O)Nc3ccc(F)cc3)cccc2nn1,-2%

# Continuation.
SMILES,KAT2A inh
Cc1cccc(C(=O)/C=C2/c3ccccc3CC(C)(C)N2C)c1,-3%
CCCS(=O)(=O)N1CCC(C(=O)NCCCN2CCCC2=O)CC1,-6%
COc1ccc(N2CC(NC(=O)c3ccc(S(=O)(=O)N4CCCCC4)cc3)CC2=O)cc1 (stereo unspecified),-1%
CC(=O)c1cccc(NC(=O)NCc2ccc3c(c2)OCO3)c1,-11%
Cn1ncc([N+](=O)[O-])c1C(=O)Nc1cccc2ccccc12,-3%
O=S(=O)(NCc1ccco1)c1ccc2c(c1)Cc1ccccc1-2,-8%
O=C(c1ccc(Cl)cc1Cl)N1CCSCC1,-9%
Cc1ccc(-n2c(=O)[nH]cc(C(=O)Nc3ccc4c(c3)OCCO4)c2=O)cc1,-5%
CCN(C(=O)C(Cc1ccccc1)NS(=O)(=O)c1cccc2nsnc12)c1ccccc1 (stereo unspecified),-11%
COc1ccc([N+](=O)[O-])cc1NC(=O)CSc1ncccn1,-5%
CCOCCCNC(=O)c1c[nH]c2cc(OC)ccc2c1=O,-1%
O=C(/C=C/c1cc(Br)ccc1F)OCC(=O)N1CCOCC1,-7%
Nc1nccnc1C(=O)OCc1nc2sc3c(c2c(=O)[nH]1)CCCC3,-2%
CCSc1nc2c(cnn2-c2ccccc2)c(=O)n1N,0%
COc1ccc(S(=O)(=O)N2CCC(C(=O)N3CCN(C)CC3)CC2)cc1Cl,-2%
Cc1cccc(NC(=O)[C@@H]2CCCN2C2=NS(=O)(=O)c3ccccc32)c1C,-2%
O=C(Nc1cccc(Cl)c1)c1ccc2c(c1)SC1=NS(=O)(=O)CCN12,10%
CC(C)NC(=O)c1ccc(Cn2c(SCC(N)=O)nc3ccccc3c2=O)cc1,-14%
O=C(O)COc1ccc(/C=N/NC(=O)COc2nsnc2N2CCOCC2)cc1,-4%
CC1(c2ccccc2)CC(C)(C)N(C(=O)CSc2nnc(N)s2)c2ccccc21 (stereo unspecified),-3%
CC1(C)C(=O)NCCN1C(=O)CCC(=O)O,4%
CCN1CCN(c2ccc(NC(=O)c3cccc(F)c3)cc2Cl)CC1,-4%
CCC(C(=O)OC)n1cnc2scc(-c3ccc(C)cc3)c2c1=O (stereo unspecified),-2%
Cc1c(C(=O)/C=C/N(C)C)nnn1-c1ccc(Cl)c(Cl)c1,-3%

# Bioassay records deposited in PubChem by National Center for Advancing Translational Sciences (NCATS).
